# hNpr1 antagonist: Natriuretic polypeptide receptor (hNpr1) antagonism - Primary qHTS. Potency, µM (highest dose often 46.3 µM), for inactives: at the highest dose activity change, negative = inhibition, hits mostly inhibitors. HEK293 hNpr1 GloSensor cGMP, ANP-stimulated luminescence. hit rate 1.6% among 76,000; active = well fitted inhibition curve with a large enough effect; inconclusive = small, poorly fitted or top-dose-only effect; inactive = no such curve, though single readings can be large or run the other way;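 also: nearly all actives have a fitted effect of over 60% in size; nearly all hits also lower the signal before the agonist is added; a reference antagonist and vehicle were the controls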
# Target sequence (P16066 whole entry, looked up): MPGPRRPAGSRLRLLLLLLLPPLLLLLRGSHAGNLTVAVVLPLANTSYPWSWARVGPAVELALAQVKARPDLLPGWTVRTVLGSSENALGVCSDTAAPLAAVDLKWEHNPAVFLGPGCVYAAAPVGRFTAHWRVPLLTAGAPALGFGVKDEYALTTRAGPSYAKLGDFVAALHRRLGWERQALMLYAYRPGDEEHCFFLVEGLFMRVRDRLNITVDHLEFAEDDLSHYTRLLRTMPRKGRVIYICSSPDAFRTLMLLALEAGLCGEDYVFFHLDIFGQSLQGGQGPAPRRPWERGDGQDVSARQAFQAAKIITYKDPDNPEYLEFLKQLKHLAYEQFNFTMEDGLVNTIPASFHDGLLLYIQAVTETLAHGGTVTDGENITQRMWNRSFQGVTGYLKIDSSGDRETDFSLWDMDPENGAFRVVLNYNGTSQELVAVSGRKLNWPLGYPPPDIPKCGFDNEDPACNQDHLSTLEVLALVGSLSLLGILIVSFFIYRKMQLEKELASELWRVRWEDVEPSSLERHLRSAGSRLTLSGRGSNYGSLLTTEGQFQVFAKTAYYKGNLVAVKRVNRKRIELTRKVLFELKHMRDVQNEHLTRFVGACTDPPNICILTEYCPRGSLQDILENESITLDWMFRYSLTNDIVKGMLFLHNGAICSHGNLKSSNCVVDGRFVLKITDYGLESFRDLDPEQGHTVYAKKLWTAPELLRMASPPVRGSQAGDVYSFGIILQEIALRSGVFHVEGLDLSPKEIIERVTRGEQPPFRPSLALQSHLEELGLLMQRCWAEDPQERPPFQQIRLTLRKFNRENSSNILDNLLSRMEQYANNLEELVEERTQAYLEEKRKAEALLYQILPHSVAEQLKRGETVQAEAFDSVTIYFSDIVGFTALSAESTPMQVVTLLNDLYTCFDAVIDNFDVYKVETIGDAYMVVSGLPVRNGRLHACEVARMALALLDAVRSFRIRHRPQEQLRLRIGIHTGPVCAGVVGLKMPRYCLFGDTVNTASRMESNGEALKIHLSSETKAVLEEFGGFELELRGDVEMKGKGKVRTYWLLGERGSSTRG
#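 HEK293 cells stably expressing human Npr1 and cGMP GloSensor pGS-40F, loaded 2 h with 2% GloSensor reagent, given compound 30 min at room temperature. Luminescence read before and 20 min after 0.1 nM hNppA.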
# * marks the source's active call; other numbers are inactive results; ? = inconclusive; [ ] = dose if it differs, or a comment. % is scaled to controls: 0 for no effect and ±100 for the full control effect; potency is read from the fitted curve at half-maximal effect. This is a subset, so the mix of outcomes need not match the whole.
smiles	hNpr1 antagonist
Cc1ccc(S(=O)(=O)N2CC(c3nc(-c4ccncc4)no3)C2)cc1Cl	-7%
CCOCCCNC(=O)N1CCC2(CC1)CC(N1CCOCC1)CCO2 (stereo not drawn)	-12%
CN(C)C[C@@H]1CN(c2ccncn2)C[C@H]1NC(=O)c1ccc(Cl)s1	1%
O=C(Cc1ccccc1)Nc1ccc2n(c1=O)C[C@H]1C[C@@H]2CN(S(=O)(=O)c2ccc(Cl)cc2)C1	-1%
CCc1nc(NCCOC)ncc1C(=O)O	3%
COc1cc(C(C(=O)O)N(C)Cc2c(C)nn(C)c2C)ccc1N (stereo not drawn)	4%
COc1ccc(CN2C[C@@H](F)[C@@H](OCc3nc4ccccc4[nH]3)C2)cc1	-10%[70.6 µM]
COc1ccc(C(=O)Nc2ccc3c(c2)CN(Cc2ccc(OC)cc2OC)C(=O)CO3)cc1	-2%
Cc1ccccc1C1(O)CCN(C(=O)c2ccc(C#CC(C)(C)O)o2)C1 (stereo not drawn)	-11%
COc1cccc(NC(=O)N[C@H]2CCN(C(=O)C=C(C)C)[C@@H]2C(=O)N[C@H](Cc2ccccc2)C(N)=O)c1	3%
CC(C)C[C@@H]1N[C@H](C(=O)N2CCN(C)CC2)Cc2c[nH]c3cccc1c23	-6%[70.6 µM]
CN(C)c1cc(N2CCCC(NC(=O)c3ccnn3C)C2)ncn1 (stereo not drawn)	5%
COCCOCC(=O)N1CC(Oc2cccc(-c3nc(C)no3)c2)C1	-1%
COc1cccc2c1ccn2CCNC(=O)C1CC(=O)N(c2n[nH]c3ccccc23)C1 (stereo not drawn)	2%
CCn1nc(C)c(C(=O)N2CCC(=O)N(CC3CC3)C(C(C)C)C2)c1C (stereo not drawn)	?
CCn1cc(C(CC(=O)N2CCC(C)CC2)c2cccc(Cl)c2)c2ccccc21 (stereo not drawn)	-16%
CN(C)c1ccc(-c2nnnn2[C@H]2CO[C@H]3[C@@H]2OC[C@@H]3NC(=O)CCC(=O)O)cc1	2%[70.6 µM]
Cc1cnn(CCC(=O)N[C@@H]2CN(Cc3ccccc3)C[C@H]2CO)c1	4%
Cc1nc(C)c(C(=O)N2CCC3(CC2)CC(N(C)Cc2ccccc2)CCO3)s1 (stereo not drawn)	-7%
O=C(CC1=CCCCC1)N1CCc2nn(CC3CC3)c(=O)n2CC1	-3%
CC(C)CNC(=O)C1COC2(CCN(C(=O)c3ccc(F)cc3)CC2)N1C(=O)c1ccccc1 (stereo not drawn)	7%
CN(C)C[C@@H]1CN(c2ncccn2)C[C@H]1NS(=O)(=O)c1ccc(Cl)cc1	10%
COc1cccc(F)c1-c1ncc2c(n1)OCCN(CC1CC1)C2=O	2%[70.6 µM]
COc1ccc2c(c1)c(CN1CCc3nc(N4CCN(C)CC4)[nH]c(=O)c3CC1)cn2C	1%
COc1ccc(Cl)cc1C(=O)N1CC2CC(C1)[C@H]1CCCC(=O)N1C2 (stereo partly drawn)	0%

# Following part.
smiles	hNpr1 antagonist
COc1ccc(CCNC(=O)Cn2cccc2-c2nc(-c3ccc4c(c3)OCO4)no2)cc1OC	3%
CCc1nc(-c2c3n(c(=O)n(CC(=O)NCc4ccc(F)cc4)c2=O)CCCCC3)no1	0%
COc1ccc(C[C@@H]2NC(=O)[C@H]3CN(C(=O)c4ccc(N(C)C)cc4)CCN3C2=O)cc1	-2%
O=c1[nH]c(N2CCc3ccccc3C2)nc2c1CCN(Cc1cccnc1)CC2	-16%
Clc1cccc(CN2CC[C@H](c3nc4ccccc4s3)C2)c1	3%[70.6 µM]
O=C(c1ccoc1)N1CCC2(CC1)CN(c1ccncn1)CC2CO (stereo not drawn)	6%
COCCNC(=O)[C@@H]1CCC[C@@H](NCc2nccs2)CN(C)C(=O)C1	0%[70.6 µM]
CNC(=O)[C@@H]1CN(C(=O)c2ccc(C)[nH]c2=O)C[C@H]1c1nc(COC)no1	0%
O=C(N[C@H](c1cccs1)C1CC(O)C1)c1cnn2cc(CCO)cnc12 (stereo partly drawn)	13%
CC(=O)Nc1ccc(CN2CC[C@H](c3nc4ccccc4[nH]3)C2)cc1	-1%[70.6 µM]
CCCNC(=O)N1C[C@@H](Oc2cccnc2)C[C@@H]1C(=O)N1CCOCC1	1%
CN(Cc1cc(C(C)(C)C)n[nH]1)C(=O)c1ccccc1C1CCNC1 (stereo not drawn)	3%
O=C(CC1C(=O)NCCN1Cc1ccccc1)NC1C2CC3CC(C2)CC1C3 (stereo not drawn)	8%
Cn1cccc1C(=O)N[C@H]1CCN2C(=O)c3cc(Br)ccc3NC(=O)[C@@H]2C1	-9%[70.6 µM]
CC1(c2ccccc2)N(Cc2ccccc2F)C(=O)OC12CCN(C(=O)COc1ccccc1C(N)=O)CC2 (stereo not drawn)	-23%
CS(=O)(=O)N1CCN2C(=O)N(Cc3ccc(F)cc3)C[C@H]2C1	0%[70.6 µM]
O=C(NCc1ccccc1)N1CCC(N2C(=O)C3(CCCCC3)C2c2ccncc2)CC1 (stereo not drawn)	-1%
CS(=O)(=O)c1ccc(OCC2(CNCc3ccc(Cl)cc3)C[C@@H](O)[C@@H](O)C2)cc1 (stereo partly drawn)	1%
COCCNC(=O)[C@@H]1C[C@H](Oc2ccccc2)CN1S(=O)(=O)Cc1ccccc1F	12%
COc1ccc([C@H]2C[C@@H](O)[C@@H](O)[C@@H]2NCc2nc3ccccc3n2C)cc1	0%[70.6 µM]
COc1ccccc1-c1cc(-c2cccs2)nc2c(C)noc12	3%[70.6 µM]
COCC(=O)N[C@H]1C[C@@H](c2nc(-c3ccc4c(c3)OCO4)no2)N(C)C1	0%[70.6 µM]
COCCNC(=O)Cc1c[nH]c2ncc(-c3ccccc3C)cc12	-24%[70.6 µM]
COc1ncccc1C(=O)N1C[C@@H](CN2CCCCC2)[C@@H](CO)C1	0%
N#Cc1cccc(C(=O)Nc2ccc3ncnc(N4CCCCC4)c3c2)c1	-11%

# New compounds follow:
smiles	hNpr1 antagonist
Cc1ccc(-c2nc(C(=O)N3CCN(c4ccccc4F)CC3)no2)cc1	2%
COCCC1(NS(C)(=O)=O)CCN(S(=O)(=O)c2ccc3c(c2)CCC3)CC1	5%
CC(C)NC(=O)N1CC[C@@H](CC(=O)O)[C@@H](CC2=NCCc3ccc(C(C)(C)C)cc32)C1	1%[70.6 µM]
Cc1ccc(C(=O)N2CCC3(CC2)NC(=O)N(c2ccccc2)N3)cc1	6%
Cc1noc2c(N3CC[S+](=O)([O-])CC3)cc(-c3cccc(C(F)(F)F)c3)nc12	10%[70.6 µM]
CNC(=O)CN1CCCC(N2CCN(c3ccccc3F)CC2)C1 (stereo not drawn)	3%
O=C(Cc1ccc2c(c1)OCO2)N[C@@H]1CCOC[C@H]1Oc1ccccn1	15%
COc1ccc(CNC(=O)c2ccc(Cn3ccn4nc5c(c4c3=O)CCCC5)cc2)c(OC)c1	-28%
Cc1ccncc1C(=O)N1CCCn2ccnc2C1c1ccccc1 (stereo not drawn)	-10%
COc1ccc(C(=O)N2CCCC2)c(OC2CCN(C(=O)c3ccn[nH]3)CC2)c1	4%
Cc1ccc(C(=O)N2CCC3(CC2)N=C(c2ccc(Cl)cc2)NO3)s1	?
CC(=O)N1CCC(C(=O)N2CCC3(CC2)NC(=O)N(c2ccccc2)N3)CC1	6%
NC(=O)[C@@H]1CN(C(=O)c2ccncc2)C[C@H]1COc1ccccc1	0%
Cc1ccc(CNC(=O)c2ccc3c(c2)CN(Cc2nccs2)CCO3)cc1	-2%
COc1ccc(C(=O)N2CCCC(C(=O)NCc3ccncc3)CCNC(=O)CC2)c(OC)c1 (stereo not drawn)	1%
CCOc1ccc(C(=O)NC2CC(c3cc(N4CCOCC4)ncn3)C2)o1 (stereo not drawn)	-5%
COc1ccc(CN2C[C@H]3CN(C(=O)NCc4ccccc4)CCN3C2=O)cc1	1%[70.6 µM]
Cc1ccc(CNC(=O)c2ccc3c(c2)n(Cc2ccccc2)c(=O)c2ccnn23)o1	-16%
COCC(=O)N1CCC2(CC1)CC(N(C(=O)c1ccccc1)C1CC1)CCO2 (stereo not drawn)	7%
CC1(C)CNC(=O)c2nc(CC3CCCCN3C3CCCC3)[nH]c2C1 (stereo not drawn)	6%
O=C(NCCCc1ccccc1)C1CCN(C(=O)N2CC3CC(C2)[C@H]2CCCC(=O)N2C3)CC1 (stereo partly drawn)	5%
CN(CC1CCOCC1)C(=O)C1CCCC1	2%
CN1C(=O)C2(CCN(C(=O)CCn3ccc(=O)[nH]c3=O)CC2)c2ccccc21	-2%
CC(C)c1ccc(C(=O)N2CC3CC(C2)[C@H]2CCCC(=O)N2C3)cc1 (stereo partly drawn)	3%
CNC(=O)Cn1nc(C(=O)N2CCCC(CO)(CC3CC3)C2)cc1C (stereo not drawn)	6%

# Further records follow.
smiles	hNpr1 antagonist
CN1Cc2cccn2CC1CNC(=O)c1cccn1C (stereo not drawn)	-13%
O=C1CC(c2ccccc2)N(Cc2ccccn2)CCCCCN1 (stereo not drawn)	2%
O=C(c1ccc(F)c(Cl)c1)N1CCC2(CC1)N=C(c1ccccc1)NO2	-10%
Fc1ccccc1-c1n[nH]c2c1CN(Cc1cccc3c1OCO3)CC2	1%
CN1CCCN(C(=O)CC2CCCC2)c2ccccc21	-1%
O=C(Cn1nc2n(c1=O)CCCC2)Nc1ccc(F)cc1	0%
O=C1c2c(nc(COc3ccc4c(c3)OCO4)n2Cc2ccccc2)NCCN1Cc1cccc(Cl)c1	?
CCn1nccc1C(=O)N1CCC(Cc2ccc(C(N)=O)cc2)CC1	6%
COc1ccc(-c2ccc3c(c2)C(=O)N2CC[C@H](NC(=O)c4cccs4)[C@H]2C(=O)N3)cc1	3%
COCC1CN(C)CC12CCN(S(=O)(=O)c1ccc(C#N)cc1)CC2 (stereo not drawn)	-1%
Cn1nc(C(=O)N2CCCN(c3cc(-c4ccccc4)[nH]n3)CC2)c2ccccc21	-2%
Cc1ccc(CNC(=O)N2CCC(Oc3ccccc3-c3nc(C)no3)C2)cc1 (stereo not drawn)	5%
CC1=C[C@@H](CN2CCN(C)CC2)[C@H](C(C)C)C[C@H]1Cc1nnc(-c2ccccc2F)o1	1%[70.6 µM]
Cc1ccccc1-c1cc(-c2c(C)noc2C)c2cncn2c1	-15%[70.6 µM]
CCc1noc(-c2cccn3c(CNC(=O)C(C)Oc4ccccc4)nnc23)n1 (stereo not drawn)	3%
O=C(c1ccc(Cl)cc1)N1CCC(n2cnnc2-c2ccccc2)CC1	2%
CNC(=O)c1nnn2cc(C)[nH]c(=O)c12	0%
CC(C)OCCCNc1ncnc2c1CN(C1CCC1)C(=O)CN2C	4%[70.6 µM]
O=C(CCc1ccccc1)NCCC1CCN(C(=O)Nc2ccc(F)cc2F)CC1	2%
CC(C)c1noc(-c2cn(C3CCN(C(=O)c4ccco4)C3)nn2)n1 (stereo not drawn)	0%
CCn1cc(CNCc2ccc(OCC(O)CN3CCSCC3)c(OC)c2)cn1 (stereo not drawn)	2%
CCn1cc(S(=O)(=O)N2CCOc3ccc(CCC(=O)NCC4CC4)cc3C2)cn1	3%
CC(C)N1CCCC2(CCN(C(=O)c3cccc4nccnc34)C2)C1=O (stereo not drawn)	1%
CCc1noc(-c2cccn3c(CNC(=O)C4CCC4)nnc23)n1	9%
COc1cccc(CN2CCC3(CC2)CN(c2ccncn2)CC3CO)c1OC (stereo not drawn)	3%

# Other results.
smiles	hNpr1 antagonist
CCc1ccc(C(=O)NC2CCN(c3cc(-c4ccccc4)[nH]n3)CC2)cc1	-14%
CC(C)CN1CCC[C@H]1c1nc(-c2ccnc(NS(C)(=O)=O)c2)no1	4%[70.6 µM]
CCOCCN1C(=O)COC[C@@H]1[C@H](O)c1ccc(NC(C)=O)cc1	2%[70.6 µM]
CCOC(=O)C(C)Oc1cccn2c(=O)c(-c3cc(C)n(-c4cccc(F)c4)n3)c(C)nc12 (stereo not drawn)	7%
O=C(c1ccco1)N1CCC2(CCN(CCCn3cccn3)CC2)C(CO)C1 (stereo not drawn)	3%

# By substructure, the compounds so far with a Cl atom.
smiles	hNpr1 antagonist
Cc1ccc(S(=O)(=O)N2CC(c3nc(-c4ccncc4)no3)C2)cc1Cl	-7%
CN(C)C[C@@H]1CN(c2ccncn2)C[C@H]1NC(=O)c1ccc(Cl)s1	1%
O=C(Cc1ccccc1)Nc1ccc2n(c1=O)C[C@H]1C[C@@H]2CN(S(=O)(=O)c2ccc(Cl)cc2)C1	-1%
CCn1cc(C(CC(=O)N2CCC(C)CC2)c2cccc(Cl)c2)c2ccccc21 (stereo not drawn)	-16%
CN(C)C[C@@H]1CN(c2ncccn2)C[C@H]1NS(=O)(=O)c1ccc(Cl)cc1	10%
COc1ccc(Cl)cc1C(=O)N1CC2CC(C1)[C@H]1CCCC(=O)N1C2 (stereo partly drawn)	0%
Clc1cccc(CN2CC[C@H](c3nc4ccccc4s3)C2)c1	3%[70.6 µM]
CS(=O)(=O)c1ccc(OCC2(CNCc3ccc(Cl)cc3)C[C@@H](O)[C@@H](O)C2)cc1 (stereo partly drawn)	1%
Cc1ccc(C(=O)N2CCC3(CC2)N=C(c2ccc(Cl)cc2)NO3)s1	?
O=C(c1ccc(F)c(Cl)c1)N1CCC2(CC1)N=C(c1ccccc1)NO2	-10%
O=C1c2c(nc(COc3ccc4c(c3)OCO4)n2Cc2ccccc2)NCCN1Cc1cccc(Cl)c1	?
O=C(c1ccc(Cl)cc1)N1CCC(n2cnnc2-c2ccccc2)CC1	2%
